# Autofluor counter: flagged as autofluorescent in microsphere protease counterscreen; fluorescence intensity (no concentration beside the values); 360,000 compounds, 3.1% hits; compound autofluorescence counterscreen, microsphere flow cytometry; active compounds read high;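 active = at least 3 SD above the mean of all compounds, about 16000 in these data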;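 note: 100 nL of 1 mM stock went into each well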
# BJeLR viability: MLPCN primary cell-based screen for lethality selective to Ras in HRASV12 cells. BJeLR (HRASV12) viability, CellTiter-Glo ATP luminescence, 48 h; reference of the scale not given here. inhibition, % (test concentration not listed). 300,000 compounds, 0.17% hits. AID 1554, 2009;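 active = replicate mean above 50%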;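 note: 50 nL library stock added to about 25 µL; numbers are from one replicate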
# Mtb hypoxia inh: PubChem AID 1159583 | fluorescence inhibition, % (test concentration not listed) | M. tuberculosis hypoxia-regulated fluorescent reporter, fluorescence | 300,000 compounds, 0.1% hits;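 active = 35 to 45% if threefold the growth effect, above 45% if 1.5-fold the growth effect; inactive = the rest, general growth blockers included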;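 note: wells of about 50 µL received 100 nL stock; 0% = vehicle wells and 100% = reference inhibitor wells; whole bacteria with a GFP reporter of the hypoxia response; strong numbers were not always called active; many hits fall short of the cut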
# ugtP null kill: growth inhibition of ugtP-null S. aureus, primary screen, RN4220 ugtP deletion, OD600. 330,000 compounds, 0.54% hits. growth inhibition, % (no concentration beside the values). 16 h; some inactives read as strong as hits;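 active = z-score under -3 and OD600 up to 0.15 on both plates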;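 note: plate controls were untreated wells for no effect and antibiotic for full effect; wells of about 80 µL received 100 nL stock; the first replicate is given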
# PrP UTR inh: inhibition of PrP 5' UTR reporter expression | cell-based PrP 5' UTR mRNA reporter, plate reader | inhibition, % (concentration not given with the values) | 340,000 compounds, 0.35% hits;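 active = every replicate at 50% or more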;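 note: 0 = median of the neutral control wells; tested in H4 reporter cells; numbers are from one replicate; inactives centre near -14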
# Sa RN4220 lethal: growth inhibition of S. aureus RN4220, primary screen, OD600 | AID 1259311, 2017 | 330,000 compounds, 0.33% hits | 16 h | inhibition, % (test concentration not listed);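 active = z-score of -3 or lower and OD600 up to 0.18 on both plates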;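 note: plate controls were untreated cells for no effect and reference antibiotic for full effect; stock transfer was 100 nL into about 80 µL; one replicate is shown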
# Mtb hypoxia inh growth: recorded beside Mtb hypoxia inh, whose call it bears; growth inhibition, %; measured here: M. tuberculosis growth (absorbance);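 0% = vehicle and 100% = reference antibiotic; read after six days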
# Active calls of the source: *; nt = not tested or not shown.
SMILES	Autofluor counter	BJeLR viability	Mtb hypoxia inh	Mtb hypoxia inh growth	ugtP null kill	PrP UTR inh	Sa RN4220 lethal
CC1CCCCC1NC(=O)C1CC(=O)N(Cc2ccccc2)C1 (stereo unspecified)	7645	-5	3	-2	0	-10	-0.9
CCOC(=O)N1CCN(C(=O)CSc2nnc(-c3cccc(OC)c3)o2)CC1	4436	nt	nt	nt	6	-11	-3.2
NC(=O)COc1cc2oc(=O)c3c(c2cc1Cl)CCCC3	4000	4	13	6	1	-12	6.2
CCOc1cc(C#N)c(NC(=O)Cn2nnc3ccccc32)cc1OCC	5831	1	1	-1	2	-20	4.6
O=C(O)C1C2CCC(O2)C1C(=O)Nc1ccccc1Br (stereo unspecified)	3052	0	12	5	9	0	5.7
CCO[C@H]1OC(C(=O)N2CCN(Cc3ccc4c(c3)OCO4)CC2)=C[C@@H](c2cn(C(C)=O)c3ccccc23)[C@@H]1CCCO	3960	3	nt	nt	nt	-15	nt
O=C(CN1CCNCC1)Nc1ccccc1Cl	8850	10	9	12	2	-21	5.6
Oc1nc(Nc2ccc(Cl)cc2Cl)sc1/C=C1\C=Nc2ccccc21	2565	-9	-17	14	-33	-19	2.1
Cc1csc(SCc2nnc(-c3ccccc3Br)o2)n1	9163	15	9	6	-2	-61	2.3
CC(=NNC(=O)COc1ccc(C)cc1[N+](=O)[O-])c1ccc2c(c1)OCCO2	nt	nt	-6	8	-8	nt	2.6
O=C(CCC(=O)N1CCOc2ccc(Cl)cc21)NCCCN1CCOCC1	6221	-3	2	6	-2	-12	-5.7
CC(=O)C1=C(O)C(=O)N(c2ccc(Br)cc2)C1c1ccc(Cl)cc1 (stereo unspecified)	3769	-14	-6	0	2	-7	3.7
CC(C)(C)NC(=O)NC(=O)CSc1cccc(C(F)(F)F)c1	4673	-3	8	4	1	26	9.4
COc1cc(/C=C2/SC(=S)N(C)C2=O)ccc1OC(=O)c1ccco1	2172	-3	4	5	-1	-13	20
Cc1ccc(-c2nc(CSCC(=O)NC3CCN(Cc4ccccc4)CC3)c(C)o2)cc1	5338	-3	-3	-1	1	-26	-1.7
CCOCCn1c(SCc2ccc(F)cc2)nc2c1c(=O)[nH]c(=O)n2C	6079	-11	6	-1	6	-17	5.5
Cc1ccc(NC(=O)[C@H](C)NC(=O)C2CCN(C(=O)[C@@H](N)CC(C)C)CC2)cc1	3919	1	4	3	6	-3	2.3
Cc1cccc(CN2CCCC(C(=O)Nc3ccc(-c4cscn4)cc3)C2)c1 (stereo unspecified)	5875	-3	6	17	-5	-16	0.0
COc1ccccc1NC(=O)CSc1nnc(-c2ccoc2C)n1CCc1ccccc1	3152	-4	nt	nt	-3	-26	4.9
CCOc1cc(NC(=S)NCCCN2CCOCC2)c(OCC)cc1NC(=O)c1cccc(C)c1	2516	8	0	-1	8	-14	6.0

# Record cards (already shown). Screens in order: Autofluor counter, BJeLR viability, Mtb hypoxia inh, Mtb hypoxia inh growth, ugtP null kill, PrP UTR inh, Sa RN4220 lethal
# Oc1nc(Nc2ccc(Cl)cc2Cl)sc1/C=C1\C=Nc2ccccc21 in the list: 2565, -9, -17, 14, -33, -19, 2.1
# CC1CCCCC1NC(=O)C1CC(=O)N(Cc2ccccc2)C1 (stereo unspecified) in the list: 7645, -5, 3, -2, 0, -10, -0.9

# Going on with the list:
SMILES	Autofluor counter	BJeLR viability	Mtb hypoxia inh	Mtb hypoxia inh growth	ugtP null kill	PrP UTR inh	Sa RN4220 lethal
CCCN(CCC)S(=O)(=O)c1ccc(C(=O)Nc2ccc(OCC(=O)N3CCOCC3)cc2)cc1	10552	30	16	6	-11	-74	5.2
CC(=NNC(=O)c1cc(C(C)C)[nH]n1)c1ccncc1	nt	nt	15	3	0	nt	5.5
CC(=O)c1sc(Nc2ccc(C)cc2)nc1C	4537	5	2	3	-2	-25	5.4
COc1ccc(-c2ccc(C(=S)N3CCN(C(C)=O)CC3)o2)cc1	7964	0	20	11	5	-9	8.0
COc1ccc(N2CCN(C(=O)Cc3ccc(Br)cc3)CC2)cc1	4148	0	6	-4	9	-20	1.0
CCOC(=O)c1ccc(OCc2c(C)noc2C)cc1	2747	5	nt	nt	13	-21	2.5
COc1ccccc1-c1nnc2sc(-c3cc4ccccc4o3)nn12	3839	21	3	8	1	54*	3.3
COC(=O)c1c(C)oc(C)c1S(=O)(=O)NC(c1ccccc1)c1ccccc1	nt	-9	8	-6	25	-33	7.0
O=C1Nc2ccccc2C(=O)N2[C@H](c3ccccc3)[C@@H]3C(=O)N(Cc4ccccc4)C(=O)[C@@H]3[C@H]12	3646	-4	nt	nt	nt	-6	nt
Cc1ccccc1Nc1nc(N)nc(CN(C)c2ccccc2)n1	4389	8	4	5	1	-15	3.6
O=C(NCc1ccc(F)cc1)C1CCN(S(=O)(=O)N2CCOCC2)CC1	3264	10	9	9	0	-31	11
O=C(CSc1nc(-c2ccccc2)cc(C(F)(F)F)n1)NCCN1CCOCC1	2382	12	11	8	0	-6	3.8
O=C(NCCc1cccc(Cl)c1)c1ccc(Cl)c([N+](=O)[O-])c1	2538	-10	6	2	-8	-9	1.5
COc1ccc(S(=O)(=O)N2CCOCC2)cc1NC(=O)CCNC(=O)c1ccc(Cl)cc1	5531	nt	5	2	2	-7	1.6
O=C(O)CCSCCC(=O)O	4090	-9	-8	-9	4	8	-7.9
CCOC(=O)CNc1ncc([N+](=O)[O-])cc1C#N	2200	6	nt	nt	nt	-10	nt
O=c1ccc(-c2ccccc2)no1	5617	-6	7	-8	-2	-10	4.6
O=C(C1CC(=O)N(c2ccc(F)cc2)C1)N1CCC(c2nc3ccccc3[nH]2)CC1 (stereo unspecified)	6340	1	-5	-2	7	-12	1.7
COC(=O)Nc1ccc(S(=O)(=O)N2CCCC(C(=O)Nc3cccnc3)C2)cc1 (stereo unspecified)	9816	-4	13	14	-5	-28	4.2
COc1ccc(/C=C/CN2CCCC(CCC(=O)NCc3ccc(F)c(F)c3)C2)cc1 (stereo unspecified)	4800	-6	nt	nt	nt	-9	nt
Cn1cc(C=NNC(=O)C2COc3ccccc3O2)c2ccccc21 (stereo unspecified)	nt	nt	7	4	0	nt	0.0
CCn1c(CSc2nnc3ccccn23)nc2cc(C(=O)O)ccc21	3270	-1	-4	3	2	-28	-3.0
COC(=O)C1SCCN1S(=O)(=O)c1ccc(Cl)cc1 (stereo unspecified)	3729	10	-13	-7	5	-5	2.9
Nc1cc(C(F)(F)F)cc2c1SCC(=O)N2	4306	-7	13	4	-1	-1	0.1
CCN(CC)C(=O)CSC1=NC(=Cc2ccco2)C(=O)N1c1ccc(OC)c(Cl)c1	nt	nt	0	1	-4	nt	8.9
CC(C)(C)n1nnnc1C(c1ccc2ncccc2c1)N1CCC(O)CC1 (stereo unspecified)	4399	0	-3	16	-2	6	2.9
O=C(c1ccccc1)C(CCC(CN1CCOCC1)C(=O)c1ccccc1)CN1CCOCC1 (stereo unspecified)	2845	12	nt	nt	9	-14	-1.6
CN(C)C=C(C#N)C(=O)NN=Cc1ccc(F)cc1	nt	nt	-1	3	-7	nt	-1.3
Cc1noc(C)c1COc1ccc(C(=O)N(C)CCOc2ccccc2)cc1	3429	nt	12	-2	6	-4	3.9
Cc1ccccc1N1CCN(C2CCCN(C(=O)Cc3c(C)noc3C)C2)CC1 (stereo unspecified)	4115	6	2	3	8	0	5.2
COc1ccc(/C=C2\SC(N3CCc4ccccc4C3)=NC2=O)cc1OC	2375	-2	1	-3	-30	-8	0.7
COc1ccc(Nc2nc(CN3CCOCC3)nc3sc4c(c23)CCC(C)C4)cc1OC (stereo unspecified)	nt	-11	1	4	-4	nt	0.6
COc1ccc(NC(=O)C2=CC(c3ccc(OC)c(OC)c3)=NS(=O)(=O)N2C)cc1	6422	4	8	9	-6	-31	-9.8
Cc1ccc(O)c(N=Cc2ccc(C)s2)c1	2149	-21	12	-2	6	-12	7.1
CC(=O)N(C)c1ccc(NC(=O)Cc2cccs2)cc1	4018	-8	4	-1	1	-23	0.7
c1ccc(-c2cnn3c(-c4ccccc4)c(-c4ccccc4)nc3n2)cc1	5602	nt	11	10	2	-1	-1.4
O=C(NCCN1CCOCC1)c1ccc(Cl)c(S(=O)(=O)N2CCCCCC2)c1	2906	-4	8	7	-8	-8	-16
CC/C(=C\C(=O)c1ccncc1)Nc1ccc(O)cc1	2333	11	nt	nt	17	-15	0.4
Cc1ccc(N2CCN(/N=C/C(Cl)=C/c3ccccc3)CC2)cc1	4296	-4	nt	nt	nt	0	nt
CC1(c2cnc(Nc3ccccc3)s2)CCC(=O)O1 (stereo unspecified)	4635	-1	nt	nt	5	-15	4.7

# Of the compounds above, these have a Cl atom:
SMILES	Autofluor counter	BJeLR viability	Mtb hypoxia inh	Mtb hypoxia inh growth	ugtP null kill	PrP UTR inh	Sa RN4220 lethal
NC(=O)COc1cc2oc(=O)c3c(c2cc1Cl)CCCC3	4000	4	13	6	1	-12	6.2
O=C(CN1CCNCC1)Nc1ccccc1Cl	8850	10	9	12	2	-21	5.6
Oc1nc(Nc2ccc(Cl)cc2Cl)sc1/C=C1\C=Nc2ccccc21	2565	-9	-17	14	-33	-19	2.1
O=C(CCC(=O)N1CCOc2ccc(Cl)cc21)NCCCN1CCOCC1	6221	-3	2	6	-2	-12	-5.7
CC(=O)C1=C(O)C(=O)N(c2ccc(Br)cc2)C1c1ccc(Cl)cc1 (stereo unspecified)	3769	-14	-6	0	2	-7	3.7
O=C(NCCc1cccc(Cl)c1)c1ccc(Cl)c([N+](=O)[O-])c1	2538	-10	6	2	-8	-9	1.5
COc1ccc(S(=O)(=O)N2CCOCC2)cc1NC(=O)CCNC(=O)c1ccc(Cl)cc1	5531	nt	5	2	2	-7	1.6
COC(=O)C1SCCN1S(=O)(=O)c1ccc(Cl)cc1 (stereo unspecified)	3729	10	-13	-7	5	-5	2.9
CCN(CC)C(=O)CSC1=NC(=Cc2ccco2)C(=O)N1c1ccc(OC)c(Cl)c1	nt	nt	0	1	-4	nt	8.9
O=C(NCCN1CCOCC1)c1ccc(Cl)c(S(=O)(=O)N2CCCCCC2)c1	2906	-4	8	7	-8	-8	-16
Cc1ccc(N2CCN(/N=C/C(Cl)=C/c3ccccc3)CC2)cc1	4296	-4	nt	nt	nt	0	nt

# Compound activity (PubChem)
